Vaccinia inh: blocks a specific stage of Vaccinia orthopoxvirus infection, primary screen, cell-based, single point | hit rate 0.01% among 89,000 | Vaccinia-infected cells, mCherry/Venus stage reporter fluorescence; active compounds read low; some inactives read as strong as hits | activity change (mCherry), % (test concentration not listed);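 active = mCherry past -33% and 40 or more points under the early reporter, replicates agreeing; inconclusive = past -33% without that gap or agreement; tested in A549 cells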;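 note: scaled between vehicle wells and reference inhibitor wells; 23 nL library stock went into each well; one replicate is shown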
Vaccinia inh Venus: further read-out of Vaccinia inh, marked with its call; activity change (Venus), %; measured here: Venus reporter, other viral stage;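 negative = less Venus signal; first of two replicates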
Active calls of the source: *; ? = inconclusive; / = no result given; & = joins results of further samples.

No. | Molecule | Vaccinia inh | Vaccinia inh Venus
1 | C[C@@H]1CN([C@@H](C)CO)S(=O)(=O)c2ccc(/C=C/c3ccccc3)cc2O[C@@H]1CN(C)C(=O)CN1CCOCC1 | -12 | -10
2 | C[C@H](CO)N1C[C@H](C)[C@H](CN(C)C(=O)Nc2ccccc2)Oc2ncc(C#CC3CCCCC3)cc2C1=O | ? | /
3 | C[C@@H]1CCCCO[C@H](CN(C)C(=O)Nc2ccc(F)cc2)[C@H](C)CN([C@@H](C)CO)C(=O)c2cc(NC(=O)c3ccccc3)ccc2O1 | -19 | -12
4 | O=C(C[C@H]1CC[C@@H]2[C@H](COC[C@@H](O)CN2Cc2cccc(Cl)c2)O1)N1CCCCC1 | -4 | -12
5 | CCCNC(=O)N1[C@H](CO)[C@@H]2c3ccccc3N(C(=O)C3CCOCC3)C[C@@H]21 | 18 | 12
6 | COc1ccc2c3c([nH]c2c1)[C@H](CO)N(C(=O)c1ccccn1)CC31CCN(C(=O)C2CCCC2)CC1 | 0 | -7
7 | O=C(c1ccccc1F)N1CC(=O)N2[C@H](C1)[C@H](c1ccc(-c3cccnc3)cc1)[C@@H]2CO | 15 | 9
8 | C[C@H](CO)N1C[C@H](C)[C@H](CN(C)C(=O)NC2CCCC2)OCc2cnnn2CCCC1=O | 18 | 17
9 | O=C(O)C[C@@H]1CC[C@@H]2[C@H](COC[C@@H](O)CN2S(=O)(=O)c2ccc(F)cc2)O1 | 13 | 10
10 | O=C(NCC[C@@H]1CC[C@H](NC(=O)C2CCCCC2)[C@@H](CO)O1)c1cc(Cl)cc(Cl)c1 | -26 | -20
11 | CCCC#Cc1cnc2c(c1)C(=O)N([C@@H](C)CO)C[C@@H](C)[C@H](CN(C)C(=O)C1CCOCC1)O2 | 15 | 7
12 | O=C(C[C@H]1C=C[C@H](NC(=O)CC2CC2)[C@H](CO)O1)NCc1ccccc1 | 8 | 6
13 | CO[C@@H]1CC[C@H]2CCOc3c(C#N)cccc3C(=O)N(C)[C@@H](C)C(=O)N(C)C[C@@H]1O2 | 6 | -2
14 | O=C(Nc1ccc2c(c1)OCO2)N[C@@H]1C=C[C@H](CC(=O)N2CCN(c3ccccc3)CC2)O[C@H]1CO | 0 | 7
15 | C[C@@H]1CN([C@H](C)CO)C(=O)CCCn2nncc2CO[C@H]1CN(C)C(=O)c1ccncc1 | 5&5 | 2&2
16 | Cc1noc(C)c1NC(=O)N(C)C[C@H]1OCCCC[C@@H](C)Oc2ccc(NC(=O)C3CCCCC3)cc2C(=O)N([C@@H](C)CO)C[C@H]1C | 19 | 8
17 | Cc1ccc(S(=O)(=O)Nc2ccc3c(c2)CC(=O)N([C@H](C)CO)C[C@@H](C)[C@H](CN(C)Cc2ccc(-c4ccccc4)cc2)O3)cc1 | -9 | -10
18 | C[C@H]1CN([C@@H](C)CO)C(=O)c2cccc(NS(=O)(=O)c3ccc(Cl)cc3)c2O[C@H]1CN(C)C(=O)Nc1ccc(F)cc1 | ? | /
19 | C[C@@H]1CN([C@@H](C)CO)C(=O)Cc2cc(NC(=O)CCC(F)(F)F)ccc2O[C@@H]1CN(C)Cc1ccc(C(=O)O)cc1 | 14 | 2
20 | O=C(C[C@@H]1C[C@@H]2c3cc(NS(=O)(=O)c4ccccc4)ccc3O[C@@H]2[C@H](CO)O1)NCC1CC1 | 11 | 4
21 | COCC(=O)N1C[C@H](C)[C@@H](OC)CN(C)C(=O)c2cc(NS(C)(=O)=O)ccc2OC[C@@H]1C | -3 | 3
22 | C[C@H]1CN([C@@H](C)CO)C(=O)c2cc(NC(=O)CCCN(C)C)ccc2O[C@@H]1CN(C)S(=O)(=O)c1cccs1 | 24 | 15
23 | CO[C@@H]1CN(C)C(=O)c2cc(NC(=O)Nc3ccccc3F)ccc2OC[C@@H](C)N(C(C)=O)C[C@@H]1C | 2 | -2
24 | CO[C@@H](CN(C)C(=O)C1CC1)[C@H](C)CN(C(=O)Nc1ccc(C(F)(F)F)cc1)[C@@H](C)CO | -14 | -17
25 | C[C@@H]1CN([C@H](C)CO)C(=O)c2cc(NS(=O)(=O)c3cn(C)cn3)ccc2O[C@@H]1CN(C)C | 10 | 4
26 | CCN1[C@@H]2Cn3c(ccc(C4=CCCCC4)c3=O)[C@H]1[C@@H](C(=O)N1CCc3ccccc3C1)[C@@H]2CO | -14 | -17
27 | Cn1cnc(S(=O)(=O)N[C@@H]2CC[C@@H](CC(=O)N3CCN(c4ccccc4)CC3)O[C@H]2CO)c1 | 1 | -2
28 | C[C@@H]1CN([C@H](C)CO)C(=O)CCCn2nncc2CO[C@H]1CN(C)Cc1ccc2c(c1)OCO2 | 7&14 | 5&13
29 | COc1ccc2c3c(n(C)c2c1)[C@@H](CO)N(C)CC31CCN(C(=O)c2cccnc2)CC1 | 10 | 0
30 | COCC#Cc1ccc2c(c1)O[C@@H](CN(C)C(=O)COC)[C@H](C)CN([C@H](C)CO)S2(=O)=O | 8 | 1
31 | COC(=O)C[C@H]1C=C[C@@H](NS(=O)(=O)c2ccccc2F)[C@@H](CO)O1 | -6 | -2
32 | Cc1noc(C)c1S(=O)(=O)N(C)C[C@H]1Oc2ccc(NC(=O)NC(C)C)cc2CC(=O)N([C@@H](C)CO)C[C@@H]1C | 16 | 6
33 | COc1ccc(NC(=O)Nc2cccc3c2O[C@@H](CN(C)S(=O)(=O)c2cn(C)cn2)[C@H](C)CN([C@@H](C)CO)C3=O)cc1 | 23 | 13
34 | O=C(c1cccc(F)c1)N1CC2(C1)[C@H](c1ccccc1)[C@H](CO)N2C(=O)C1CCC1 | 2 | 8
35 | COc1cccc(C(=O)N2C[C@H]3[C@@H](c4ccccc42)[C@H](CO)N3C(=O)c2ccc(F)cc2)c1 | 9 | 6
36 | COc1ccccc1C#Cc1ccc2c(c1)O[C@H](CN(C)Cc1cccnc1)[C@H](C)CN([C@H](C)CO)S2(=O)=O | ? | /
37 | COC(=O)[C@H]1[C@H](CO)[C@H]2Cn3c(ccc(-c4cccc(F)c4)c3=O)[C@H]2N1CC1CCCC1 | ? | /
38 | CN1C(=O)c2cc(NC(=O)c3ccccc3Cl)ccc2OC[C@H]2O[C@H](CC(=O)O)CC[C@H]21 | 10 | 7
39 | CCCN(C)C[C@H]1Oc2ncc(-c3cccc(C#N)c3)cc2C(=O)N([C@H](C)CO)C[C@H]1C | 7 | 3
40 | O=C(C[C@@H]1C[C@@H]2c3cc(NC(=O)CC4CC4)ccc3O[C@@H]2[C@@H](CO)O1)NCC1CC1 | 2 | 8
41 | COc1ccc(S(=O)(=O)Nc2ccc3c(c2)C(=O)N([C@H](C)CO)C[C@H](C)[C@H](CN(C)C(=O)NC2CCCCC2)OCCCC[C@H](C)O3)cc1 | ? | /
42 | CN1CCN(C(=O)C[C@H]2CC[C@@H]3[C@H](COC[C@@H](O)CN3C(=O)Nc3cc(Cl)cc(Cl)c3)O2)CC1 | -8 | -4
43 | C[C@H]1CN([C@@H](C)CO)C(=O)c2cccc(NS(=O)(=O)c3cn(C)cn3)c2O[C@H]1CN(C)Cc1ccc(-c2ccccc2)cc1 | -3 | 1
44 | C[C@@H]1CN([C@H](C)CO)C(=O)c2cc(NS(=O)(=O)c3cccs3)ccc2O[C@H]1CN(C)Cc1ccc(C(=O)O)cc1 | 21 | 11
45 | C[C@H](CO)N1C[C@H](C)[C@@H](CN(C)Cc2cccc(F)c2)Oc2cc(C#Cc3ccccn3)ccc2S1(=O)=O | ? | /
46 | C[C@@H]1CN([C@@H](C)CO)C(=O)Cc2cc(NS(=O)(=O)c3ccccc3)ccc2O[C@@H]1CN(C)Cc1ccc(C(=O)O)cc1 | 1 | -10
47 | COc1ccc(CN(C)C[C@@H]2OCCCC[C@H](C)Oc3ccc(NC(=O)NC(C)C)cc3C(=O)N([C@@H](C)CO)C[C@@H]2C)cc1 | -14 | 5
48 | C[C@@H]1CCCCO[C@H](CN(C)Cc2ccccc2)[C@H](C)CN([C@H](C)CO)C(=O)c2cc(NC(=O)Nc3ccc(C(F)(F)F)cc3)ccc2O1 | -13 | -9
49 | O=C(C[C@H]1CC[C@H]2[C@@H](COC[C@@H](O)CN2CC2CCOCC2)O1)N1CCOCC1 | 9 | 7
50 | C[C@H]1CCCCO[C@H](CN(C)Cc2ccc3c(c2)OCO3)[C@@H](C)CN([C@@H](C)CO)C(=O)c2cc(NS(=O)(=O)c3ccc(F)cc3)ccc2O1 | ? | /
51 | COc1ccc(CN(C)C[C@H]2Oc3c(NS(=O)(=O)c4ccc(F)cc4)cccc3C(=O)N([C@@H](C)CO)C[C@H]2C)cc1 | -7 | -4
52 | COCC#Cc1cnc2c(c1)C(=O)N([C@H](C)CO)C[C@@H](C)[C@H](CN(C)C(=O)CCN1CCCCC1)O2 | 27 | 2
53 | COc1ccc2c3c([nH]c2c1)[C@H](CO)N(C(=O)c1ccccc1)CC31CCN(C)CC1 | ? | /
54 | C[C@@H]1CN([C@H](C)CO)C(=O)c2cc(NC(=O)C3CCCCC3)ccc2O[C@@H]1CN(C)Cc1ccc(Cl)c(Cl)c1 | -21 | -12
55 | C[C@@H]1CN([C@H](C)CO)C(=O)c2cccc(NC(=O)C3CC3)c2O[C@@H]1CN(C)C | 1 | 5
56 | C[C@@H](NC(=O)C[C@H]1C[C@H]2c3cc(NC(=O)CC4CC4)ccc3O[C@H]2[C@H](CO)O1)c1ccccc1 | 1 | -1
57 | C/C=C/c1ccc([C@@H]2[C@H](CO)N(C(=O)Cc3cccnc3)[C@H]2CNC(C)=O)cc1 | 6 | -1
58 | C/C=C/c1ccc([C@H]2[C@H]3CN(C(=O)Nc4ccc(OC)cc4)CC(=O)N3[C@H]2CO)cc1 | 6 | 2
59 | C[C@@H]1CN([C@H](C)CO)C(=O)c2cccc(NC(=O)Nc3ccc(F)cc3)c2O[C@H]1CN(C)S(=O)(=O)c1cccs1 | 14 | -3
60 | C[C@H](CO)N1C[C@H](C)[C@@H](CN(C)CC2CC2)OCCCC[C@H](C)Oc2ccc(NC(=O)Cc3ccccc3)cc2C1=O | 12 | 6

Profiles, quoted from the list. Order of screens: Vaccinia inh | Vaccinia inh Venus
Results for CCCN(C)C[C@H]1Oc2ncc(-c3cccc(C#N)c3)cc2C(=O)N([C@H](C)CO)C[C@H]1C = 7 | 3
Results for CO[C@@H](CN(C)C(=O)C1CC1)[C@H](C)CN(C(=O)Nc1ccc(C(F)(F)F)cc1)[C@@H](C)CO = -14 | -17

Next section
No. | Molecule | Vaccinia inh | Vaccinia inh Venus
61 | COc1ccc(S(=O)(=O)Nc2ccc3c(c2)C(=O)N([C@H](C)CO)C[C@H](C)[C@@H](CN(C)Cc2ccc4c(c2)OCO4)O3)cc1 | 19 | 10
62 | C[C@@H]1CN([C@@H](C)CO)C(=O)c2cccc(NS(=O)(=O)c3ccc(Cl)cc3)c2O[C@H]1CN(C)Cc1ccncc1 | 2 | -2
63 | CC=Cc1ccc2n(c1=O)C[C@H]1[C@H](CO)[C@@H](C(=O)NCCc3ccccc3)[C@@H]2N1C (mixture of isomers) | 20 | 12
64 | C[C@@H]1CN([C@@H](C)CO)C(=O)c2cc(NC(=O)Nc3ccc4c(c3)OCO4)ccc2O[C@@H](C)CCCCO[C@H]1CN(C)Cc1ccc(Cl)c(Cl)c1 | -20 | -7
65 | C[C@@H]1CCCCO[C@H](CN(C)C)[C@@H](C)CN([C@@H](C)CO)C(=O)c2cc(NS(=O)(=O)c3ccccc3)ccc2O1 | -7 | 0
66 | C=C[C@@H](COC(C)=O)N(C(=O)OC(C)(C)C)S(=O)(=O)c1ccc(Br)cc1 | 22 | 5
67 | CO[C@H]1CN(C)C(=O)c2cc(NS(=O)(=O)CC(F)(F)F)ccc2OC[C@@H](C)NC[C@H]1C | 13 | 23
68 | COc1ccc(NC(=O)N(C)C[C@@H]2Oc3ccc(NC(=O)CCN4CCOCC4)cc3CC(=O)N([C@H](C)CO)C[C@H]2C)cc1 | 8 | 9
69 | O=C(C[C@@H]1C=C[C@H](NS(=O)(=O)c2ccc(F)cc2)[C@@H](CO)O1)NCc1ccc(Cl)c(Cl)c1 | -33 | -17
70 | CC(C)NC(=O)N(C)C[C@H]1Oc2ccc(NC(=O)C3CCCCC3)cc2C(=O)N([C@H](C)CO)C[C@H]1C | 13 | 7
71 | CN(C)C(=O)C[C@H]1C[C@H]2c3cc(NC(=O)Nc4ccc(C(F)(F)F)cc4)ccc3O[C@H]2[C@@H](CO)O1 | 5 | 5

Filtered by structure: the entries above with a Cl atom
No. | Molecule | Vaccinia inh | Vaccinia inh Venus
4 | O=C(C[C@H]1CC[C@@H]2[C@H](COC[C@@H](O)CN2Cc2cccc(Cl)c2)O1)N1CCCCC1 | -4 | -12
10 | O=C(NCC[C@@H]1CC[C@H](NC(=O)C2CCCCC2)[C@@H](CO)O1)c1cc(Cl)cc(Cl)c1 | -26 | -20
18 | C[C@H]1CN([C@@H](C)CO)C(=O)c2cccc(NS(=O)(=O)c3ccc(Cl)cc3)c2O[C@H]1CN(C)C(=O)Nc1ccc(F)cc1 | ? | /
38 | CN1C(=O)c2cc(NC(=O)c3ccccc3Cl)ccc2OC[C@H]2O[C@H](CC(=O)O)CC[C@H]21 | 10 | 7
42 | CN1CCN(C(=O)C[C@H]2CC[C@@H]3[C@H](COC[C@@H](O)CN3C(=O)Nc3cc(Cl)cc(Cl)c3)O2)CC1 | -8 | -4
54 | C[C@@H]1CN([C@H](C)CO)C(=O)c2cc(NC(=O)C3CCCCC3)ccc2O[C@@H]1CN(C)Cc1ccc(Cl)c(Cl)c1 | -21 | -12
62 | C[C@@H]1CN([C@@H](C)CO)C(=O)c2cccc(NS(=O)(=O)c3ccc(Cl)cc3)c2O[C@H]1CN(C)Cc1ccncc1 | 2 | -2
64 | C[C@@H]1CN([C@@H](C)CO)C(=O)c2cc(NC(=O)Nc3ccc4c(c3)OCO4)ccc2O[C@@H](C)CCCCO[C@H]1CN(C)Cc1ccc(Cl)c(Cl)c1 | -20 | -7
69 | O=C(C[C@@H]1C=C[C@H](NS(=O)(=O)c2ccc(F)cc2)[C@@H](CO)O1)NCc1ccc(Cl)c(Cl)c1 | -33 | -17

Source: PubChem BioAssay

An excerpt; count on the stated rates, not on these rows.
